Compound activity (PubChem)
Vaccinia mCherry: inhibitors of vaccinia virus infection (mCherry reporter signal); Potency, µM (highest dose often 36.5 µM), inactives show top-dose activity change, negative = inhibition, most hits filed as inhibitors; actives 0.63% (n = 310,000); Vaccinia virus mCherry reporter infection, fluorescence; about a quarter of the inactives have no number; AID 720579; active = well fitted inhibition curve with a large enough effect; inconclusive = small, poorly fitted or top-dose-only effect; inactive = no such curve, though single readings can be large or run the other way; tested in A549 cells; note: nearly all actives have a fitted effect of over 35% in size; inactives centre near -10
VACV Venus inh: vaccinia inhibition (Venus reporter) | actives 0.46% (n = 330,000) | Potency, µM (doses to about 36.5 µM), inactives show at the highest dose activity change, negative = inhibition, actives largely listed as inhibitors | Vaccinia virus Venus reporter expression, fluorescence | AID 720580; active means well fitted inhibition curve with a large enough effect; inconclusive means small, poorly fitted or top-dose-only effect; inactive means no such curve, though single readings can be large or run the other way; tested in A549 cells; note: nearly all actives have a fitted effect of over 30% in size; inactives centre near -10
* hit, by the source's call; i = inactive; ? = inconclusive; . = no result given; & = joins results of further samples. % is set by controls: 0 for no effect and ±100 for the full control effect; potency is the fitted concentration of half-maximal effect.

Every second line gives: Vaccinia mCherry | VACV Venus inh
- CCOc1ccc(NC(=O)Cn2nnc(C(=O)OC)c2C(=O)OC)cc1
    1% | 1%
- Cc1ccc(C2=CSC3=NS(=O)(=O)CCN23)cc1
    -12% | -11%
- CCOc1ccccc1NC(=O)C(CC)n1c(C(=O)OC)cc2occc21 (stereo not drawn)
    -13% | -4%
- COc1cc(C(=O)/C=C/c2cccnc2)c([N+](=O)[O-])cc1OC
    13µM* | 11µM*
- CC(C)c1ccc(NC(=O)c2ccc(Br)o2)cc1
    -13% | -23%
- CCOc1ccc(-c2cc(C(=O)NC3CCCCC3)[nH]n2)c(C)c1
    2% | -1%
- CCc1ccccc1NC(=O)Cn1c(=O)n(-c2ccc(CC(=O)NCC3CCCO3)cc2)c(=O)c2ccccc21 (stereo not drawn)
    -5% | -8%
- COC(=O)CC1CC2(C(=O)OC)c3[nH]c4ccccc4c3CCN2C1=O (stereo not drawn)
    17% | -1%
- Cc1nc2c(OCc3ccccc3)cccn2c1N(C)C(=O)C1CCCCC1
    6% | -4%
- CCN(CC)C(=O)[C@H]1CC(CC(=O)NCC23CC4CC(CC(C4)C2)C3)C(=O)N2CCc3c([nH]c4ccccc34)[C@]12C (stereo partly drawn)
    ? | ?
- O=C(COc1ccc([N+](=O)[O-])cc1)NCC(c1cccs1)N1CCOCC1 (stereo not drawn)
    -28% | 4%
- CCN(CCCNC(=O)CCNC(=O)Cn1cnc2ccccc2c1=O)c1cccc(C)c1
    -19% | -13%
- COc1cc(Cl)c(C)cc1Nc1ncnc2c1nc1n2CCCC1
    i | -15%
- COc1ccccc1Nc1ncc(-c2cccs2)s1
    . | 1%
- CCc1ccc(CNC(=O)c2ccc3c(c2)nc2n3CCOC2)cc1
    -12% | -6%
- COc1ccc(-c2ccc(=O)n(CC(=O)Nc3ccccc3C(F)(F)F)n2)cc1
    -4% | -1%
- O=S(=O)(NC(=S)c1ccccc1)c1ccc(Cl)cc1
    -8% | 12%
- CC(=O)c1cccc(NS(=O)(=O)c2ccc(N/C=C\C(=O)c3ccc(C)cc3)cc2)c1
    -9% | ?
- CC(=O)N1c2ccccc2NC2=C(C(=O)CCC2)C1c1cccnc1 (stereo not drawn)
    -9% | -8%
- CCc1nc2ccc(C(=O)NCCC(C)C)cn2c1N(CC)CCN(C)C
    10% | -10%
- NNC(=O)c1cc(-c2ccco2)[nH]n1
    ? | -8%
- C/C=C/c1ccc(OC)c(OC(C)=O)c1
    -5% | -2%
- CCOC(=O)c1[nH]c2ccc(OC)cc2c1NC(=O)OC
    . | -11%
- CCCc1nc(SCC(=O)NNC(=O)C2CCCCC2)c2ccccc2n1
    -16% | -1%
- COc1ccc(NC(=O)Cn2c(=O)n(CCCCCC(=O)NCc3ccc4c(c3)OCO4)c(=O)c3sccc32)cc1Cl
    -14% | -15%
- CCOC(=O)C1CCCN(C(=O)c2ccc(CNc3c(N4CCC(C)CC4)c(=O)c3=O)cc2)C1 (stereo not drawn)
    -2% | -10%
- CC1(C)Cc2c(sc3nc(C4CCCCC4)n(N)c(=O)c23)CO1
    i | -8%
- O=C(N/N=C/c1cn(Cc2ccccc2)c2ccccc12)c1cccnc1
    -18% | -23%
- CC(C)Cc1ccc(/C=C/C(=O)NC2CC2)cc1
    -14% | -12%
- Cc1ccc2ncc(C(=O)N3CCN(c4ccccc4F)CC3)c(=O)n2c1
    -8% | -8%
- CCOc1ccccc1NC(=O)C(Cc1ccccc1)NS(=O)(=O)c1ccc2c(c1)oc(=O)n2C (stereo not drawn)
    -6% | 4%
- COC(=O)c1sc(NC(=O)COc2ccccc2OC)nc1C
    i | -11%
- COc1ccc(-n2c(SCc3ccccn3)nc3c(c2=O)SCC3)cc1OC
    ? | -22%
- CC1CCCCN1c1csc2ccc(F)cc2c1=O (stereo not drawn)
    -14% | -16%
- CCn1c(-c2ccc(F)cc2)n[nH]c1=S
    . | -12%
- COCCN(C(=O)c1csnn1)C(C(=O)NC1CCCCC1)c1ccc(Cl)cc1 (stereo not drawn)
    i | -16%
- Cc1cccc(NC(=O)c2cc(Cl)sc2Cl)c1C
    -1% | -10%
- CCOc1ccc(NC(=O)c2cc(S(=O)(=O)N3CCCCC3)c[nH]2)cc1
    ? | -9%&-16%
- CSCCC(c1nc2ccccc2[nH]1)n1c(-c2ccc(C)cc2)nc2ccccc21 (stereo not drawn)
    i | -9%
- CNS(=O)(=O)c1cc(N(C)S(=O)(=O)c2ccc(C)cc2)c(C)cc1C
    i | -7%
- O=C(O/N=C/C1=C(Cl)c2ccccc2CC1)c1ccc(F)cc1
    . | 8%
- COc1ccc(S(=O)(=O)N(C)C)cc1NC(=O)CSc1nncs1
    -4% | 2%
- Cc1ccc(-n2[nH]c3c4c(ccc3c2=O)C(=O)c2ccccc2C4=O)cc1
    -6% | 7%
- CCc1ccc(Nc2nc(N)nc(CSc3nnnn3-c3ccccc3)n2)cc1
    . | -36%
- Cc1c(-c2ccc(Cl)cc2)c(=O)oc2ccc(OC(=O)N3CCOCC3)cc12
    i | -18%
- CC(CNC(=O)Cc1ccc(NC(=O)N2CCSc3ncccc32)cc1)c1ccccc1 (stereo not drawn)
    -13% | -10%
- COc1cccc(Nc2nc(-c3sc(NC(=O)c4ccco4)nc3C)cs2)c1
    ? | ?
- O=C(N/C(=C/c1ccc(Cl)cc1)c1nc2ccccc2[nH]1)c1ccco1
    -3% | ?
- CCOC(=O)c1ccccc1NC1OC(=O)c2ccccc21 (stereo not drawn)
    -16% | -9%
- N#Cc1cnc2c(-c3ccccc3)c(-c3ccccc3)nn2c1N
    i | -10%
- CSCCC(NS(=O)(=O)c1ccc2c(c1)oc(=O)n2C)C(=O)NC1CCN(Cc2ccccc2)CC1 (stereo not drawn)
    -1% | -1%
- COc1ccc(NC(=O)CSc2nnc3ccc(-c4cccnc4)nn23)cc1
    -22% | -11%
- O=C(CCC(=O)c1ccccc1)Nc1ccc(F)c(Cl)c1
    6% | 0%
- N#CC1C(=O)NC(=O)C(C#N)C12CCCC(C(F)(F)F)C2 (stereo not drawn)
    -14% | 5%
- COc1ccc2c(c1)c1c(c(=O)n(-c3ccc(C)cc3)c(=O)n1CC(=O)NCC1CCCO1)n2C (stereo not drawn)
    -7% | -8%
- CC(C)(C)[C@@H]1C=C(C(=O)N2CCN(Cc3ccccc3)CC2)O[C@H](OCc2ccc(CO)cc2)C1
    i | -30%
- CCN(c1ccccc1)S(=O)(=O)c1cc(NC(=O)CN2CCN(C)CC2)ccc1Cl
    -14% | -3%
- Cc1ccc(CNCc2cn[nH]c2-c2ccc(C)cc2)cc1
    ? | -19%
- COc1ccc(C(=O)OCc2cc(=O)oc3cc(C)ccc23)cc1S(=O)(=O)N1CCOCC1
    -14% | -24%
- CCc1ccc(C(CC(=O)O)N2Cc3ccccc3C2=O)cc1 (stereo not drawn)
    -3% | 1%

5 entries from above, with bars between the fields.
SMILES | Vaccinia mCherry | VACV Venus inh
CC(CNC(=O)Cc1ccc(NC(=O)N2CCSc3ncccc32)cc1)c1ccccc1 (stereo not drawn) | -13% | -10%
COc1cccc(Nc2nc(-c3sc(NC(=O)c4ccco4)nc3C)cs2)c1 | ? | ?
O=C(N/C(=C/c1ccc(Cl)cc1)c1nc2ccccc2[nH]1)c1ccco1 | -3% | ?
CCOC(=O)c1ccccc1NC1OC(=O)c2ccccc21 (stereo not drawn) | -16% | -9%
N#Cc1cnc2c(-c3ccccc3)c(-c3ccccc3)nn2c1N | i | -10%

Next records follow:
Every second line gives: Vaccinia mCherry | VACV Venus inh
- CCC(=O)Nc1nc2nc(-c3ccccc3)cc(=O)n2[nH]1
    -14% | -13%
- CCCNC(=O)c1ccc(N2CCC3(CC2)CC(c2cccc(Br)c2)=NO3)c(NC(=O)c2ccco2)c1
    -11% | -22%
- COc1cc(NC(=O)C2CCN(c3cnc4ccccc4n3)CC2)cc(OC)c1OC
    -16% | -14%
- Cc1ccc(NC(=O)COC(=O)CCC(=O)c2cccs2)cc1
    -14% | -5%
- COc1ccc(/C=N/Nc2nnc(-c3ccccc3)c(=O)[nH]2)cc1
    -13% | -9%
- CCCCN1C=C(C(C)=O)C(=O)CC1
    -5% | -5%
- CCOc1ccc(NC(=O)Cn2c(=O)oc3cc(S(=O)(=O)N4CCCCCC4)ccc32)cc1
    -21% | -16%
- CN(/N=C/c1cccnc1)C1=NS(=O)(=O)c2ccccc21
    i | ?
- COc1cc(C(=O)NC(C)Cc2cccs2)cc(OC)c1OC (stereo not drawn)
    0% | -7%
- O=C(OC(C(=O)Nc1ccc(Cl)cc1C(F)(F)F)c1ccccc1)c1c(Cl)cccc1Cl (stereo not drawn)
    -15% | -10%
- O=C(N/N=C1\CCc2ccccc21)c1ccccc1Cl
    -3% | -13%
- CCCC(=O)Nc1nc2ccc(OCC)cc2s1
    -6% | -21%
- O=C(CN1CCN(S(=O)(=O)c2ccc(Br)cc2)CC1)Nc1ccccc1C(=O)c1ccccc1
    i | 16%
- COC(=O)c1[nH]c2ccccc2c1NC(=O)Oc1ccccc1
    . | -31%
- CC(=O)Nc1ccc(C(=O)Nc2cccc(-c3cnc4ccccc4n3)c2)cc1
    -4% | -4%
- O=C(OCCCc1cc2ccccc2c(=O)o1)c1ccc(F)cc1
    i | -7%
- CCCCn1c(N)c(N(CC(C)C)C(=O)c2cc(=O)[nH]c3ccccc23)c(=O)[nH]c1=O
    i | -2%
- COc1cc2c(cc1OC)CN(C(=O)c1ccc(S(=O)(=O)N3CCCC3)cc1)CC2
    -18% | 1%
- CC1CN(c2nnnn2-c2ccccc2)CC(C)O1 (stereo not drawn)
    . | -24%
- CCOCCCNC(=O)C(NC(=O)c1ccc2c(c1)OCO2)c1ccc(OC)cc1 (stereo not drawn)
    -10% | 0%
- Cc1cccc(N(CC(=O)NC2CCCC2)C(=O)c2csnn2)c1C
    -14% | 0%
- CCN(CC)c1nc2c(c(=O)n(C)c(=O)n2C)n1CC(=O)c1ccccc1
    i | -7%
- CCN(CC)c1c(C)nc2ccc(C(=O)NCc3ccc4c(c3)OCO4)cn12
    24% | 0%
- Cn1c(=O)oc2cc(S(=O)(=O)NC(Cc3ccccc3)C(=O)Nc3ccc(F)cc3)ccc21 (stereo not drawn)
    -12% | -12%
- O=C1CC(c2ccccc2)CC(O)=C1C=NCc1ccc(Cl)cc1 (stereo not drawn)
    -5% | -5%
- O=C(N/N=C/c1c(O)ccc2ccccc12)c1ccc[n+](CCO)c1
    -27% | 8%
- CCOc1ccccc1C1CC(=O)Nc2cc(OC)c(OC)cc21 (stereo not drawn)
    -14% | -9%
- O=C(Nc1ccccc1F)c1ccc(S(=O)(=O)NCC2CCCO2)cc1 (stereo not drawn)
    -2% | -17%
- COc1ccc(/C=C(\C#N)C(=O)NCc2cccnc2)cc1OC
    -15% | -17%
- CCC1CN(C(=O)N2CCC(C(=O)NCc3ccc(C)o3)CC2)c2ccccc2O1 (stereo not drawn)
    -3% | -8%
- CC(=O)c1cccc(NC(=S)NC(=O)c2ccc(Cl)cc2)c1
    -5% | -21%
- CN(C)CCCNc1ncnc2c1cnn2-c1ccccc1
    -10% | -15%
- O=C(CSc1nnc(-c2ccco2)n1Cc1ccccc1)NCc1ccccc1
    -19% | -15%
- CCN(C[C@H]1N[C@@](C)(C(=O)OC)[C@H]2C(=O)N(Cc3ccccc3)C(=O)[C@@H]12)C(=O)COC
    -6% | 7%
- O=C(CCS(=O)(=O)c1ccccc1)Nc1ccc(Cl)cn1
    2% | -2%
- CC(C)(CNC(=O)c1cnn(-c2nccc(-c3ccccc3F)n2)c1C1CC1)N1CCOCC1
    -20% | -15%
- CNC(=S)NNc1nc(N2CCOCC2)nc(N2CCOCC2)n1
    0% | -18%
- COc1ccc(C)cc1NC(=O)CCC(=O)Nc1nnc(C2CCCCC2)s1
    i | -7%
- Cc1ccc(C(=O)NCC(c2cccs2)S(=O)(=O)c2cccs2)cc1 (stereo not drawn)
    ? | -22%
- CCC(Sc1nc2c(sc3ccccc32)c(=O)n1CCCC(=O)NC1CCCC1)C(=O)Nc1cccc(OC)c1 (stereo not drawn)
    i | -14%
- Cc1nc2c(c(C)c1CCC(=O)NCc1ccc(Cl)cc1)c(=O)n(C)c(=O)n2C
    -7% | -6%
- CCOc1ccc(-n2ccnc(SCC(=O)Nc3cccc(OC)c3)c2=O)cc1
    -5% | -11%
- O=C(Nc1ccccc1Cl)NC1CCCCCCC1
    -1% | -2%
- COc1ccc2c(c1)CC(C(=O)NCCCN1CCN(c3ccc(F)cc3)CC1)CO2 (stereo not drawn)
    -17% | -27%
- NC(=O)c1cc2ccc(O)cc2oc1=Nc1ccccc1
    -12% | -13%
- O=C(CCc1c[nH]c2ccccc12)NCCc1ccc(Cl)cc1
    ? | -17%
- COc1ccc(N2CCN(c3nc4ccc(C)cc4n4nnnc34)CC2)cc1
    -6% | -10%
- Cc1ccc(S(=O)(=O)N2CCCCC2)cc1NC(=O)COc1ccccc1
    -23% | 5%
- CC(C)(C)C1CCC(=NNC(=O)C(=O)NC2CCCCC2)CC1 (stereo not drawn)
    i | -8%

Whole records, quoted from the list. Values in the order: Vaccinia mCherry | VACV Venus inh
CC(C)(C)C1CCC(=NNC(=O)C(=O)NC2CCCCC2)CC1 (stereo not drawn) across the screens: i | -8%
Cc1ccc(S(=O)(=O)N2CCCCC2)cc1NC(=O)COc1ccccc1 across the screens: -23% | 5%
